Compound activity deposited in PubChem BioAssay by National Center for Advancing Translational Sciences (NCATS).
miR-21 reporter = qHTS Assay for Modulators of miRNAs and/orActivators of miR-21; HeLa miR-21 FLuc reporter, luciferase, 48 h; Potency, µM (top dose mostly 38.3 µM), for inactives: at the top dose reporter change, positive = more light; 340,000 tested, under 10 active; AID 2288, 2010; active = well fitted rising curve with a large enough effect; inconclusive = small, poorly fitted or top-dose-only effect; inactive = no such curve, though single readings can be large or run the other way;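 note: % of control where 0% means no effect; miR-21 action dims this reporter so a rising signal means less miR-21 action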
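Luminescence from a firefly luciferase reporter carrying a miR-21 binding site downstream, stably expressed under a CMV promoter in HeLa cells that make miR-21 endogenously, reports miRNA modulation after 48 h compound exposure up to approximately 40uM final.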
An asterisk follows results filed as active; ? = inconclusive.

SMILES | miR-21 reporter
COCCCn1c(SCC(=O)Nc2ccc(F)cc2)nc2c(sc3ccccc32)c1=O | -0.9%
Cc1cccc(CNC(=O)c2cnc3sc(N4CCCCCC4)nn3c2=O)c1 | -9.4%
CC(C)(C)NC(=O)CCSc1nc(-c2ccc3c(c2)OCO3)cc(C(F)(F)F)n1 | 18.0%
CCn1c(=O)cc(OCC(=O)N2CCN(c3ccc(C(C)=O)cc3)CC2)c2ccccc21 | -2.2%
O=C(Nc1cccc(C(F)(F)F)c1)c1cc2ccc3cccnc3c2[nH]1 | -41.0%
O=C(Cn1nc(-c2ccccc2)c2cnc3ccc(F)cc3c21)NC1CCCC1 | 2.4%
Cc1ccccc1NC(=O)NCCCN1CCN(c2ccccc2F)CC1 | -7.1%
CCc1cccc(C)c1NC(=O)C1CCCN1S(=O)(=O)c1cccc2nsnc12 (stereo unspecified) | 2.9%
CCc1ccccc1NC(=O)Cc1ccc(NC(=O)N2CCCCc3ccccc32)cc1 | ?
CC(C)CCNC(=O)Cn1nc(N2CCN(c3ccccc3)CC2)ccc1=O | 1.0%
COc1cc(NS(=O)(=O)c2cc(Br)cc3c2N(C(=O)C2CC2)CC3)cc(OC)c1 | ?
COc1ccc(-c2noc(CCC(=O)N(C)c3ccccc3C)n2)cc1 | 5.6%
CC12OC1C1(O)CCCC1=CC2=O (stereo unspecified) | 1.3%
CCOc1ccc(-c2cc(C(=O)NCc3ccccc3)c3c(-c4ccc(CC)cc4)[nH]nc3n2)cc1 | -2.7%
O=C(CSc1nc2c(c(=O)[nH]1)CCC2)Nc1cccc(O)c1 | -6.7%
Cc1ccc(Cl)cc1Nc1nn2c(=O)c3ccc(C(=O)NC4CCCCC4)cc3nc2s1 | -0.4%
COCC(C)NS(=O)(=O)c1ccc(N2CCCCS2(=O)=O)cc1 (stereo unspecified) | -0.3%
COC(=O)c1ccc(NC(=O)CN(C)S(=O)(=O)c2ccc(Br)s2)cc1 | 13.2%
CC(C)CC(NS(=O)(=O)c1ccc2c(c1)oc(=O)n2C)C(=O)NCc1ccccc1Cl (stereo unspecified) | -0.8%
COc1ccc(OC(=O)c2nc(SCc3ccc(C)cc3)ncc2Cl)cc1 | -3.6%
CCCCC(=O)Nc1nnc(S(=O)(=O)N(CC)c2cc(C)cc(C)c2)s1 | 20.5%
CCN(CC)CCNC(=O)C(=O)Nc1c2c(nn1-c1ccc(F)cc1)CSC2 | -12.1%
O=C(Nc1cccc(F)c1)c1cnc2sc(N3CCCC3)nn2c1=O | 4.3%
CCS(=O)(=O)N1CCc2cc(C(=O)Nc3ccc(OC)c(Cl)c3)ccc21 | 29.3%
CCN(Cc1nc(-c2ccc(OC)c(OC)c2)no1)S(=O)(=O)c1ccc(OC)cc1 | 5.6%
CCOC(=O)c1c(Nc2ccc(F)cc2)nnc(-c2ccccc2)c1-c1ccccc1 | 19.7%
COc1ccccc1NC(=O)c1nn(C)c2c1CS(=O)(=O)c1ccccc1-2 | -18.7%
COC(=O)c1cc2oc3ccccc3c2n1Cc1nc(-c2ccc(OC)cc2)oc1C | -1.7%
Cc1cc(-c2ccc(C)c(S(=O)(=O)NCc3ccc(Cl)cc3)c2)on1 | 17.3%
COc1ccc(/C=C(\NC(=O)c2ccccc2)C(=O)NC2CCCCC2)cc1 | -9.0%
CCN(CC)c1cc(C)c2cc(NC(=O)/C=C/c3ccc(C)cc3)ccc2n1 | 15.6%
CCOc1ccccc1NC(=O)c1cc2cc3cc(C)ccc3nc2s1 | -11.0%
CCCCn1c(COc2cccc(OC)c2)nc2ccccc21 | -28.1%
CCCCC(=O)NC1CC(=O)N(c2ccc3c(c2)OCCO3)C1 (stereo unspecified) | -6.6%
CCCc1cc(=O)[nH]c2nnc(SC(C)CC)n12 (stereo unspecified) | -14.3%
CCOc1ccccc1CNC(=O)c1cc2cc(S(=O)(=O)N3CCCCC3)ccc2n1C | 0.9%
CCCCNC(=O)CCSc1nc(-c2ccc3c(c2)OCO3)cc(C(F)(F)F)n1 | -1.0%
O=C(CSc1c2c(nc3ccccc13)CCC2)Nc1ccc(F)cc1 | 21.9%
O=C(NCc1ccccc1Cl)c1ccc(-n2cnc3cccnc32)cc1 | -1.2%
CCOC(=O)c1ccc(NS(=O)(=O)c2ccc3[nH]c4c(c3c2)CCCCC4)cc1 | 9.9%
CN1C(=O)C(C)(C)c2cc(S(=O)(=O)N3CCCC3C(=O)Nc3ccc(F)cc3)ccc21 (stereo unspecified) | 7.8%
CCc1nc(SCc2cc(=O)c3cc(C)ccc3[nH]2)n[nH]1 | -1.3%
CC1CCN(S(=O)(=O)c2ccc3c(c2)N(CC(=O)NCC(C)c2ccccc2)C(=O)CO3)CC1 (stereo unspecified) | -2.4%
Cc1ccc(-n2nnc(-c3nsc(NC(=O)c4cccc(Cl)c4)n3)c2C)cc1C | -11.7%
COC(=O)c1ccccc1NC(=O)Cc1nc(-c2ccc(OC)cc2)no1 | -1.1%
CC(=O)c1ccc(NC(=O)CSc2nc3c(=O)n(C)c(=O)n(C)c3n2C)cc1 | 3.5%
CCN(CC)C(=O)c1c(-c2ccccc2)c(-c2ccccc2)nn(C)c1=O | 6.8%
CCc1ccccc1NC(=O)C1CCCN(c2cnccn2)C1 (stereo unspecified) | -0.7%
COc1cccc(OCc2cc(=O)n3cc(C)sc3n2)c1 | -42.9%
COc1ccc(CCNC(c2ccc(F)cc2)c2nnc(-c3ccccc3Cl)o2)cc1OC (stereo unspecified) | 14.3%
CC(=O)N1CCCc2cc(S(=O)(=O)N3CCCCC3)ccc21 | -0.7%
O=C(c1ccc(Cl)cc1)c1cn(Cc2ccccc2)c2cc3c(cc2c1=O)OCCO3 | -5.8%
COc1ccc(-c2ccc3c(N)c(C(=O)Nc4cc(F)ccc4C)sc3n2)cc1 | -18.8%
CCOc1ccc(CCNC(=O)c2sc3nc4n(c(=O)c3c2C)CCCC4)cc1 | 0.2%
COc1ccc(CCNC(=O)c2ccc(Cn3c(=O)c4ccccc4n(Cc4ccc(F)cc4Cl)c3=O)cc2)cc1OC | -0.6%
CC(Sc1nc(=O)cc(N)n1CCc1ccccc1)C(=O)Nc1ccc(Cl)cc1 (stereo unspecified) | ?
COc1cc(OC)c(OC)cc1/C=C/c1nc2cc3ccccc3cc2c(=O)n1-c1ccc(F)cc1F | -11.3%
CCN(CC)CCNc1ncnc2c1cnn2-c1cc(Cl)ccc1C | -9.7%
CCOC(=O)c1ccc(N2C(=O)c3[nH]nc(-c4ccccc4)c3C2c2ccc(C(C)C)cc2)cc1 (stereo unspecified) | -1.8%
CCCOc1ccc(CNC(=O)c2ccc(C)c(-n3c(C)nc4cccnc43)c2)cc1 | 2.0%

The listing continues.
SMILES | miR-21 reporter
Cc1cc(C)c(NC(=O)c2cc(S(=O)(=O)NCCC3=CCCCC3)ccc2F)c(C)c1 | 4.2%
CCOc1ccc(S(=O)(=O)Nc2ccc3oc4c(c3c2)CC(C)CC4)cc1 (stereo unspecified) | -3.0%
Cc1cc(C)cc(NC(=O)c2ccc3oc(=O)c(S(=O)(=O)c4ccc(F)cc4)cc3c2)c1 | 0.0%
CC(CNC(=O)c1cnn(-c2ccc(F)cc2)c1-n1cccc1)c1ccccc1 (stereo unspecified) | 27.3%
O=c1[nH]c(SCc2c(F)cccc2Cl)nc2c1CCCC2 | 6.1%
CCOc1ccc(CCNC(=O)CSc2nnnn2-c2ccccc2Cl)cc1OCC | -0.6%
COc1cccc(NC(=O)c2ccc3[nH]c(C)cc(=O)c3c2)c1 | 0.8%
Cc1ccc(CNC(=O)CN2C(=O)COc3ccc(S(=O)(=O)N4CCC(C)CC4)cc32)cc1 | -1.4%
Cc1ccc(NC(=O)Cn2c(=O)n(Cc3nc(-c4ccccc4)no3)c(=O)c3ccccc32)c(C)c1 | 2.9%
COc1ccc(-c2cn3c(n2)sc2cc(C(=O)NC4CCCCC4)ccc23)cc1 | -8.0%
COc1cccc(NC(=O)c2sc3nc(C)c(C(=O)Nc4ccc(C)cc4C)c(-c4ccc(C)o4)c3c2N)c1 | -3.1%
Cc1cc(C)cc(NS(=O)(=O)c2ccc3[nH]cc(C(=O)N(C)Cc4ccccc4)c(=O)c3c2)c1 | ?
CN(C)c1ccc(CNC(=O)CCCN2C(=O)CCn3nc(-c4cn(C)c5ccccc45)cc32)cc1 | 0.6%
COc1cc(Nc2nn(-c3ccc(OC(F)(F)F)cc3)nc2C(C)=O)cc(OC)c1 | 3.7%
Cc1ccc(Cl)cc1NC(=O)CN1C(=O)C(C)(C)c2cc(S(=O)(=O)N3CCCCC3)ccc21 | 29.7%
Cc1nc(-c2ccccc2)sc1CCNS(=O)(=O)c1ccc(Br)cc1 | 21.0%
CCOC(=O)c1cnc2cc(-c3ccc(OCC)cc3)nn2c1-c1ccccc1 | -12.1%
CCOc1ccc(CN2C(=O)c3ccccc3Sc3ccc(C(=O)NC)cc32)cc1 | -0.2%
CCOc1ccc(NC(=O)c2oc3ccccc3c2NC(=O)c2cc3ccccc3o2)cc1 | -23.3%
COc1ccc(Cn2c(C(=O)O)c(CNCCc3cccs3)c3ccc(OC)cc32)cc1 | -7.4%

Filtered by structure: the entries above with a thiophene ring, fused or not.
SMILES | miR-21 reporter
COCCCn1c(SCC(=O)Nc2ccc(F)cc2)nc2c(sc3ccccc32)c1=O | -0.9%
COC(=O)c1ccc(NC(=O)CN(C)S(=O)(=O)c2ccc(Br)s2)cc1 | 13.2%
CCOc1ccccc1NC(=O)c1cc2cc3cc(C)ccc3nc2s1 | -11.0%
COc1ccc(-c2ccc3c(N)c(C(=O)Nc4cc(F)ccc4C)sc3n2)cc1 | -18.8%
CCOc1ccc(CCNC(=O)c2sc3nc4n(c(=O)c3c2C)CCCC4)cc1 | 0.2%
COc1cccc(NC(=O)c2sc3nc(C)c(C(=O)Nc4ccc(C)cc4C)c(-c4ccc(C)o4)c3c2N)c1 | -3.1%
COc1ccc(Cn2c(C(=O)O)c(CNCCc3cccs3)c3ccc(OC)cc32)cc1 | -7.4%

(listing goes on)
SMILES | miR-21 reporter
Cc1cccc(NC(=O)c2cc(S(=O)(=O)N3CCN(c4ccccc4F)CC3)ccc2F)c1C | 2.3%
CCS(=O)(=O)c1ccccc1C(=O)N(Cc1cccnc1)c1nc2cc(C)c(C)cc2s1 | -5.6%
CCC(C(=O)Nc1ccccc1C(=O)OC)n1c(C)c2cnn(-c3ccccc3)c(=O)c2c1C (stereo unspecified) | 15.3%
CCOc1ccc(NC(=O)Cn2nnc(C(=O)NCCc3ccccc3)c2N)cc1 | -4.3%
COc1ccc(C)cc1NC(=O)N1CC(C)Sc2ccccc21 (stereo unspecified) | 16.6%
O=C(C1CCC1)N1CCc2cc(S(=O)(=O)N3CCN(c4ccccc4)CC3)ccc21 | -4.1%
Cc1ccc(C2CC(=O)n3nc(-c4ccc(F)cc4)nc3S2)cc1 (stereo unspecified) | -1.9%
CCOC(=O)c1sc2ccccc2c1S(=O)(=O)Nc1ccc(OC)c(Cl)c1 | 0.6%
Cc1oc(-c2cccc(Cl)c2)nc1CN1CCC(C(=O)NCCCN2CCN(c3cccc(Cl)c3)CC2)CC1 | 1.4%
CCOc1ccc(C2c3c(oc4ccc(C)cc4c3=O)C(=O)N2CCCN(C)C)cc1 (stereo unspecified) | 1.3%
CCN(c1cccc(C)c1)S(=O)(=O)c1ccc(N2CCCCS2(=O)=O)cc1 | -5.0%
COc1ccc(-c2cc3nc(C)c(CCC(=O)NCCc4ccc(Cl)cc4)c(C)n3n2)c(OC)c1 | -4.4%
Cc1ccc(CNC(=O)c2c(Nc3c(C)cccc3C)sc(C(=O)c3ccccc3)c2N)cc1 | ?
Cc1ccc(NC(=O)C2CCCN2S(=O)(=O)c2ccc3c(c2)C(C)(C)C(=O)N3C)cc1 (stereo unspecified) | 4.3%
CCc1nn(CC(=O)N2CCCCC2)c(=O)c2cc3sc(C)cc3n12 | -0.6%
Cc1c(Cl)cccc1NC(=O)Cn1nc(C)c2sc3ccccc3c2c1=O | -1.1%
CCOC(=O)c1c(S(=O)(=O)NCC(=O)Nc2ccc(C)c(Cl)c2)c(C)n(C)c1C | -0.5%
CCOc1ccccc1NC(=O)C1CCCN(S(=O)(=O)c2cn(C)cn2)C1 (stereo unspecified) | 1.2%
CCc1nnc(SCC(=O)Nc2ccc(Cl)cc2F)c2cc3occc3n12 | -21.8%
Cc1ccc(-c2nonc2NC(=O)c2ccco2)cc1C | -21.2%
CCOc1ccc(NS(=O)(=O)c2ccc3[nH]cc(C(=O)N(C)C4CCCCC4)c(=O)c3c2)cc1 | -3.9%
CC(C)N(Cc1ccccc1)C(=O)CN1C(=O)CSc2ccc(S(=O)(=O)N3CCCC3)cc21 | -3.6%
COc1ccc(NC(=O)c2nc(-c3ccc(C)cc3)n3c2CCCCC3)cc1 | -1.3%
Cn1c(=O)n(C)c2cc(N3CCOCC3)c(NS(=O)(=O)c3ccc(Cl)cc3)cc21 | -20.3%
Cc1cccc(CS(=O)(=O)c2ncc(Cl)c(C(=O)Nc3nc4ccc(F)cc4s3)n2)c1 | ?
Cc1ccccc1CNCc1c(C(=O)O)c(C)n(Cc2ccc(F)cc2Cl)c1C | 2.5%
CCCN(C(=O)c1cc2c(s1)-c1ccccc1SC2)c1ccccc1F | 21.7%
Cc1ccc(NC(=O)N(Cc2cn(C)c3ccccc23)C2CCCCC2)cc1C | 4.5%
Clc1ccccc1OCCSc1nnc(-c2cccs2)o1 | -17.3%
COc1ccc(S(=O)(=O)NCC(c2ccc(N(C)C)cc2)N2CCc3ccccc32)cc1 (stereo unspecified) | -3.7%
CCc1ccc(NC(=O)Cn2c(=O)n(Cc3ccco3)c(=O)c3cccnc32)cc1 | -2.1%
CCCN(Cc1cccs1)C(=O)Nc1cc(C)cc(C)c1 | 25.3%
COc1ccccc1N1CCN(C(=O)C2CCN(S(=O)(=O)c3cnc[nH]3)CC2)CC1 | -2.3%
Cc1ccc2nc(NCc3ccccc3)c3nncn3c2c1 | 3.7%

A portion of the library, so the mix of outcomes need not match the whole.
